Six1-Eya2 blk: qHTS Assay for Inhibitors of the Six1/Eya2 Interaction | Homeobox protein SIX1 (Homo sapiens) + Protein phosphatase EYA2 (Homo sapiens), … | AlphaScreen GST-Six1/His-Eya2 binding, biochemical; stronger effect = lower value; control for the full effect not named in the record | activity change, % (no concentration beside the values) | actives 0.56% (n = 360,000); in the data active = activity change below about -65%; inconclusive = about -30% to -65%; inactive = above about -30%; further: on the % scale 0 is the no-effect control and ±100 the full control effect; compound concentration not given in the record
Target sequence (O00167 whole entry, looked up): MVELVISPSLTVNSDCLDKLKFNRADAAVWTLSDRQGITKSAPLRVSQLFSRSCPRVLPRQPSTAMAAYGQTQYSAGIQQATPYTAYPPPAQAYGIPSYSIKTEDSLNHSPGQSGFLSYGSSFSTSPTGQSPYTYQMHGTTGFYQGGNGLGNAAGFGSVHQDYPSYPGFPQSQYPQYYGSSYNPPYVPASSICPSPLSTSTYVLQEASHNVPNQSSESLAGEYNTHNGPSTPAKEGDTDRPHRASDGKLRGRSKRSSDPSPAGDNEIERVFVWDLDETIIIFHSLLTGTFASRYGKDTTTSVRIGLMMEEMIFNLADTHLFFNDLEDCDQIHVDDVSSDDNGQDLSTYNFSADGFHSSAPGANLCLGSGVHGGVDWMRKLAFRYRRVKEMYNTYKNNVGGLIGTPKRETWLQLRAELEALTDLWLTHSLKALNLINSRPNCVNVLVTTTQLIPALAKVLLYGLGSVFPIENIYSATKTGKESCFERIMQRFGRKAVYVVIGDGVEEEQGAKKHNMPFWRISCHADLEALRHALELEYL
Target sequence (Q15475 whole entry, looked up): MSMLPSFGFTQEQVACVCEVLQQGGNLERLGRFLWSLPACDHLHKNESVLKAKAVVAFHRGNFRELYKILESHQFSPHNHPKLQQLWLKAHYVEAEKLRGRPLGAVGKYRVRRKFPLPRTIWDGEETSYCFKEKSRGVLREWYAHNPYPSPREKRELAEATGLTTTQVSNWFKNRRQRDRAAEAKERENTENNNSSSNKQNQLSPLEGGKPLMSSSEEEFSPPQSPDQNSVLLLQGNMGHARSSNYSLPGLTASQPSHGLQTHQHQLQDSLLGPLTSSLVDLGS
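Six1/Eya2 binding was read as AlphaScreen signal after compounds were pinned into GST-Six1 plus His-tagged Eya2 (5X stock 250/500 nM) in pH 8.0 Tris/NaCl/TCEP buffer, beads added, then incubated 1 h, 37 C, dark.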
D2 PAM: Beta-Arrestin HTS for Positive Allosteric Modulators of the Human D2 Dopamine Receptor: Potentiators. D(2) dopamine receptor (Homo sapiens), P14416. DiscoveRx D2 beta-arrestin cells, luminescence, 90 min; 100% = 57 uM dopamine signal. potentiation, % (test concentration not listed). actives 0.23% (n = 360,000). AID 624464, 2012; active = potentiation of 50% or more; inconclusive = 30% to 50%; inactive = 30% or less;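 further: compound concentration not given in the record; tested on top of an EC20 dose of dopamine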
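PathHunter beta-arrestin assay in DiscoveRx D2 cells. Compounds were added with an EC20 of dopamine (50 nM final) for 90 min at 37 deg C. Luminescence was read 1 h after detection reagent, with 57 uM dopamine as the EC100 control.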
CtBP-E1A blk: qHTS Assay for Inhibitors of the CtBP/E1A Interaction; actives 0.49% (n = 340,000); CtBP / adenovirus E1A interaction (AlphaScreen); activity change, % (no concentration beside the values); AlphaScreen GST-E1A/His-CtBP binding, 1536-well; stronger effect = lower value; control for the full effect not named in the record; in the data active means activity change below about -65%; inconclusive means about -30% to -65%; inactive means above about -30%; further: on the % scale 0 is the no-effect control and ±100 the full control effect; compound concentration not given in the record
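GST-E1A and His-tagged CtBP (125 nM each as 5X stock) were preincubated with pin-transferred compound for 2 h at 37 °C in the dark, then glutathione donor and nickel acceptor beads were added for 1 h before AlphaScreen reading.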
TRPML1 inh: qHTS for Inhibitors of the Human Mucolipin Transient Receptor Potential 1 (TRPML1); Mucolipin-1 (Homo sapiens), Q9GZU1; TRPML1-inducible cells, Ca2+ dye fluorescence, FDSS; stronger effect = lower value; inhibition of EC80 agonist-evoked calcium signal; activity change, negative = inhibition, % (test concentration not listed); actives 0.02% (n = 390,000); AID 624415, 2012; in the data active means activity change below about -50%; inconclusive means about -30% to -50%; inactive means above about -30%;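 further: stimulus is agonist 54-4 at its EC80 concentration; on the % scale 0 is the no-effect control and ±100 the full control effect; compound concentration not given in the record; the text of the record puts the active cut at -80%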
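Tet-induced TRPML1-DL cells loaded with Ca8 no-wash calcium dye were read kinetically on FDSS. Compound addition was followed by EC80 agonist 54-4 (4 uM final); inhibition was read over 110 s.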
TRPML1 ag: qHTS for Agonists of the Human Mucolipin Transient Receptor Potential 1 (TRPML1) | TRPML1-expressing cells, Ca2+ dye fluorescence, FDSS; host cell line not named in the record; reference of the full effect not given here | AID 624414, 2012 | Mucolipin-1 (Homo sapiens), Q9GZU1 | actives 0.12% (n = 410,000) | activation, % (concentration not given with the values); in the data active = activation above about 50%; inconclusive = about 30% to 50%; inactive = below about 30%; further: 0% is about no effect; the text of the record puts the active cut at 80%
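In this qHTS format, compounds were pin-transferred onto Ca8-dye-loaded TRPML1-DL cells induced with Tet overnight, and intracellular Ca2+ fluorescence was recorded kinetically for 110 s after a 10 s baseline. A subsequent 4uM final 54-4 (EC80) addition followed by a second 110 s read served as the antagonist phase.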
TRPV1 potentiator: HTS Assay for Compounds that Act as Potentiators of the Vanilloid Receptor 1. TRPV1-expressing cells, Fluo-8 calcium influx, capsaicin EC20 potentiation; host cell line not named in the record; control for the full effect not named in the record. potentiation, % at 8.33 µM. actives 0.02% (n = 320,000); active means potentiation above 80%; inconclusive means 30% to 80%; inactive means below 30%; further: 0% is about no effect
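TRPV1-expressing cells were cultured overnight at 35.5C and loaded with Fluo-8 calcium dye for 40 to 90 min at room temperature. After a 10 s baseline, compound was added and calcium influx was read kinetically for 3 min (ex 480/em 520 nm).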
* = called active by the depositor; ? = inconclusive; · = not tested or not shown.

SMILES | Six1-Eya2 blk | D2 PAM | CtBP-E1A blk | TRPML1 inh | TRPML1 ag | TRPV1 potentiator
COc1ccc2c(CN3CCN(c4ccccc4F)CC3)cc(=O)oc2c1 | -6.6 | -6.8 | 1.0 | · | -0.9 | ·
COC(=O)c1ccc(N2CCCCC2)c(NC(=O)c2ccco2)c1 | 2.1 | -9.8 | 0.0 | 11.0 | 2.4 | -9.5
O=C(CCSCCc1ccccn1)Nc1ccc(Br)cc1F | -10.1 | -22.4 | 2.4 | 19.6 | 19.7 | -9.5
Cc1cc(C(=O)O)c(CCCN)s1 | 5.2 | -12.4 | 4.6 | -13.1 | -0.1 | 0.4
COc1ccc2[nH]c3c(c2c1)CCN1C(=O)C(CC(=O)NCCN2CCOCC2)C[C@H](C(=O)N(C(C)C)C(C)C)[C@@]31C (some centres not stated) | 2.9 | -8.2 | 2.6 | -7.4 | -0.5 | ·
O=c1cc(CSc2ccccn2)[nH]c(=O)[nH]1 | -3.5 | -8.9 | 1.4 | -2.4 | 2.7 | -5.1
Cc1nc(-c2ccc(S(=O)(=O)N3CCN(Cc4ccccc4)CC3)s2)cs1 | -7.7 | -16.5 | · | -5.6 | -0.2 | ?
CCOc1ccc(NC(=O)CCN2CCN(S(=O)(=O)c3ccc(OC)cc3)CC2)cc1 | -1.3 | -10.7 | 0.1 | -5.3 | -0.3 | 13.3
CC1CCN(C(=S)NC2CC3CCC2C3)CC1 (configuration not stated) | 4.7 | -7.0 | 1.9 | 16.0 | 0.2 | 1.8
O=C(OCC(=O)N1CCOCC1)C(c1ccccc1)c1ccccc1 | 6.3 | -7.1 | 3.4 | 2.8 | 1.0 | -6.9
Cn1c(=O)n(C)c2cc(N3CCCCC3)c(NC(=O)c3ccccc3)cc21 | 0.6 | -10.3 | 0.5 | 13.9 | -1.6 | 3.9
Nc1nc(NCc2ccco2)nc(N2CCOCC2)c1[N+](=O)[O-] | -20.0 | -3.2 | -2.0 | -5.3 | -0.7 | -15.4
Cc1cc2c(cc1C)NC(=O)CC(C(F)(F)C(F)(F)C(F)(F)F)=N2 | 2.8 | 7.2 | 8.6 | 1.1 | -0.6 | 2.0
COc1ccccc1/C=N/NC(=O)c1sc(C)nc1C | -8.6 | -1.5 | -1.4 | 30.2 | 0.4 | 4.1
Cn1c(N)c(C(=O)COC(=O)Cc2ccc(Br)cc2)c(=O)n(C)c1=O | 12.7 | -14.1 | -3.4 | 1.1 | 0.2 | ·

Full records, quoted from the list. Order of screens: Six1-Eya2 blk | D2 PAM | CtBP-E1A blk | TRPML1 inh | TRPML1 ag | TRPV1 potentiator
Profile of `CCOc1ccc(NC(=O)CCN2CCN(S(=O)(=O)c3ccc(OC)cc3)CC2)cc1` = -1.3 | -10.7 | 0.1 | -5.3 | -0.3 | 13.3
Profile of `O=c1cc(CSc2ccccn2)[nH]c(=O)[nH]1` = -3.5 | -8.9 | 1.4 | -2.4 | 2.7 | -5.1
Profile of `COC(=O)c1ccc(N2CCCCC2)c(NC(=O)c2ccco2)c1` = 2.1 | -9.8 | 0.0 | 11.0 | 2.4 | -9.5
Profile of `COc1ccccc1/C=N/NC(=O)c1sc(C)nc1C` = -8.6 | -1.5 | -1.4 | 30.2 | 0.4 | 4.1
Profile of `COc1ccc2[nH]c3c(c2c1)CCN1C(=O)C(CC(=O)NCCN2CCOCC2)C[C@H](C(=O)N(C(C)C)C(C)C)[C@@]31C` (some centres not stated) = 2.9 | -8.2 | 2.6 | -7.4 | -0.5 | ·

Additional entries
SMILES | Six1-Eya2 blk | D2 PAM | CtBP-E1A blk | TRPML1 inh | TRPML1 ag | TRPV1 potentiator
CCN(CC(=O)Nc1c(F)cccc1F)C(=O)c1nc2nccc(C)n2n1 | 1.9 | -3.7 | -0.6 | -6.7 | -0.2 | 23.3
O=S(=O)(c1ccccc1Br)N(Cc1ccccc1)CC(O)COCc1ccccc1 (configuration not stated) | -1.2 | · | 10.9 | 5.3 | 0.1 | ·
CCOc1nc(N2CCOCC2)nc(C)c1[N+](=O)[O-] | -0.3 | 0.9 | -2.0 | 10.3 | 2.9 | ?
COc1ccc(NC(=O)CCn2c(=S)[nH]c3ccccc3c2=O)cc1OC | -0.9 | -8.0 | -7.6 | -17.1 | -0.6 | 6.1
Cc1ccc(OCCNC(=O)/C=C/c2ccc([N+](=O)[O-])cc2)cc1C | -24.7 | 2.7 | -16.3 | 6.7 | 1.2 | -7.7
CC1=C2C(=O)OC(c3ccoc3)C2(C)CCC1 (configuration not stated) | 1.2 | -8.8 | -2.5 | 15.6 | 9.2 | 9.4
O=C(NCC1CCCO1)C1CCN(C2CCN(C3CCCCCC3)CC2)CC1 (configuration not stated) | -6.5 | -7.0 | 6.7 | -15.3 | -0.1 | 7.4
Cc1ccnc(SCC(=O)Nc2sccc2C#N)n1 | -8.3 | -9.7 | -1.9 | -4.1 | -0.6 | -2.9
CCOC(=O)C1=C(O)C(=O)N(Cc2ccccc2)CC1 | 9.4 | -4.5 | 4.5 | -2.3 | -0.4 | 16.9
Cc1ccc2c(c1)C(=O)CCCCC(=O)N2 | 2.4 | -7.4 | -2.9 | 20.9 | 0.4 | 5.8
CCOC(=O)C1CCN(C(=O)CCc2ccc(S(=O)(=O)NC(C)C)cc2)CC1 | 7.3 | -13.0 | -1.1 | -9.1 | 0.5 | 4.8
CCOC(=O)C1=C(CN2CCN(C(=O)c3ccco3)CC2)NC(=O)NC1c1ccccc1 (configuration not stated) | 5.3 | -4.2 | · | -3.8 | 4.8 | -13.4
Cc1ncc(CC(=O)n2cc(C(=O)c3cc(F)ccc3O)cn2)s1 | -3.7 | 3.1 | -19.2 | 4.4 | -0.9 | -23.0
CSc1ccc(Cl)c(C(=O)OCC(=O)N2CCNC2=O)c1 | 5.3 | 0.0 | · | -6.1 | -0.7 | -3.3
Cc1cccc(C)c1NC(=O)COC(=O)c1cc[n+]([O-])cc1 | 7.9 | -22.6 | 0.0 | -3.2 | 1.1 | 0.1
CC(=O)Nc1ccc(Oc2cc(N)cc([N+](=O)[O-])c2)cc1 | -5.0 | -0.4 | · | -7.9 | 0.9 | -4.6
CCCNC(=O)c1ccc2c(=O)c(O)c(-c3ccsc3)[nH]c2c1 | ? | 0.6 | -76.1* | -6.0 | 1.6 | 8.0
CC(C)(C)c1ccc(S(=O)(=O)N2CCN(C(=O)C3CCC3)CC2)cc1 | -2.7 | -7.4 | 4.6 | -3.2 | 0.2 | -11.1
NC(=O)C1CCCN(C(=O)CCC(=O)c2cccs2)C1 (configuration not stated) | 0.6 | -6.1 | 3.6 | 22.1 | 0.8 | ·
O=C(NC(=S)Nc1ccc(S(=O)(=O)N2CCCCC2)cc1)c1ccccc1 | 4.8 | -11.4 | -3.0 | -13.6 | 1.0 | -1.3
CC(C)(C)c1[nH]nc2c1C(C1C=CCCC1)C(C#N)=C(N)O2 (configuration not stated) | 3.9 | -8.5 | -10.5 | -5.4 | 0.0 | -29.4
CCN(CC)S(=O)(=O)c1ccc(N2CCN(S(=O)(=O)c3ccc4c(c3)OCCO4)CC2)nc1 | 1.6 | 6.6 | -6.7 | -10.3 | 1.9 | 5.6
O=C(c1cccc(C(=O)N2CCN(c3ccccc3)CC2)c1)N1CCN(c2ccccc2)CC1 | -14.7 | -12.6 | 3.6 | -11.1 | 2.5 | 6.5
CC1(C)CC(=O)C(C(c2ccc3c(c2)OCO3)C2C(=O)CC(C)(C)CC2=O)C(=O)C1 | -5.5 | -0.8 | 5.3 | · | -0.7 | ·
CCN1CCN(c2ccc(NC(=O)Cc3ccccc3)cc2)CC1 | -4.4 | -29.5 | -0.6 | -2.6 | -0.6 | 15.5
COc1ccc(N2C(=O)C(O)C2c2ccc(C)cc2)cc1 (configuration not stated) | 8.5 | 1.2 | 0.5 | 26.8 | 0.8 | -14.3
O=C(C1CCN(S(=O)(=O)c2ccc(Br)s2)CC1)N1CCN(C2CCCCC2)CC1 | 0.8 | -1.1 | -1.6 | 2.9 | 1.7 | 21.3
CCOc1ccc(-n2cnc3c(=O)[nH]c(N)nc32)cc1 | -1.2 | -13.5 | · | 2.2 | 0.1 | 3.5
Cc1ccc(NC(=O)COC(=O)c2ccco2)cc1S(=O)(=O)N1CCCCC1 | -0.6 | 4.4 | 7.2 | -5.4 | -1.1 | ·
C=CCN1CC(c2nc3ccccc3n2Cc2cccc3ccccc23)CC1=O (configuration not stated) | -2.3 | -2.4 | 0.1 | 18.3 | 1.5 | 9.8
COc1ccc(CNC(=O)C2CCC(CNC(=O)[C@@H]3Cc4ccccc4CN3)CC2)cc1 (some centres not stated) | 6.4 | -10.1 | -0.9 | -3.9 | -0.2 | -6.6
COc1ccc(OC)c(S(=O)(=O)Nc2c(C)nn(C)c2C)c1 | 4.6 | -1.1 | 0.8 | 30.4 | 0.0 | 1.0
CCOC(=O)c1cccc(NC(=O)CS(=O)(=O)Cc2nc(-c3cccc(OC)c3)oc2C)c1 | -22.1 | -3.2 | -16.8 | -2.2 | -0.1 | 6.6
CC1=C(C(=O)Nc2cc(C)ccc2C)C(c2cccs2)NC(=S)N1 (configuration not stated) | -1.8 | 5.7 | 0.4 | 1.6 | -0.6 | -3.7
O=C(CCn1nc(-c2ccccc2)ccc1=O)NCCCN1CCCCCC1 | -1.2 | 3.4 | -1.1 | -3.3 | 1.0 | 1.5
Cc1ccc(S(=O)(=O)N2CCCC2)cc1S(=O)(=O)N1CCCC1 | 2.0 | 17.9 | 5.5 | -7.4 | -0.5 | 2.7
COCc1ccc(CN2CCC(n3nccc3NC(=O)c3ccc4c(c3)OCO4)CC2)o1 | 4.5 | -14.6 | -11.8 | 2.1 | 0.2 | ·
O=C(NNC(=O)c1csc(-c2cccnc2)n1)Nc1ccc(Cl)cc1 | -3.6 | -8.8 | 0.7 | -5.8 | 2.0 | 5.3
O=C(COc1ccc(S(=O)(=O)NC2CCCCC2)cc1)NC1CCCC1 | -0.7 | -7.4 | · | 5.0 | 0.1 | -8.1
Cc1ccccc1NC1=NC(=S)N(CC(N)=O)C12CCOC(C)(C)C2 (configuration not stated) | 3.9 | -5.7 | -12.4 | 7.9 | 0.5 | 25.5
CCCC[C@@]1(C2CCCC2)Cc2cc(OCC(=O)O)c(Cl)c(Cl)c2C1=O | 0.5 | 2.9 | -8.0 | -5.4 | -1.0 | -7.3
CCOC(=O)c1ccc(NCc2cccnc2)cc1 | -4.6 | -20.9 | · | -3.1 | -0.9 | ?
CN(C)C(CNc1ncnc2sccc12)c1ccccc1 (configuration not stated) | 3.1 | -19.8 | 2.4 | 6.2 | 1.0 | -14.3
Cc1ccc(C)c(-n2cc(CN3CCN(C(=O)c4ncn[nH]4)CC3)c(-c3ccccc3)n2)c1 | -1.2 | -11.8 | -4.9 | 19.2 | 0.1 | -1.8

From PubChem
